Cruzain inh Det: qHTS Assay for Promiscuous and Specific Inhibitors of Cruzain (with detergent); Cruzipain (Trypanosoma cruzi), P25779; purified cruzain, Z-FR-AMC fluorescence, 0.01% Triton; Potency, µM, for inactives: max response, negative = inhibition, most hits filed as inhibitors; actives 0.43% (n = 200,000); AID 1478, 2009; active = well fitted curve in the direction sought with a large enough effect; inconclusive = small, poorly fitted or top-dose-only effect, or another doubt; inactive = no such curve, though single readings can be large; an effect the other way counts as inactive or inconclusive;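 also: plate controls were neutral wells for no effect and buffer without enzyme for full effect; nearly all actives have a fitted effect of over 40% in size; top concentration of the series not given in the record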
Target sequence (P25779 123-467 limits assumed): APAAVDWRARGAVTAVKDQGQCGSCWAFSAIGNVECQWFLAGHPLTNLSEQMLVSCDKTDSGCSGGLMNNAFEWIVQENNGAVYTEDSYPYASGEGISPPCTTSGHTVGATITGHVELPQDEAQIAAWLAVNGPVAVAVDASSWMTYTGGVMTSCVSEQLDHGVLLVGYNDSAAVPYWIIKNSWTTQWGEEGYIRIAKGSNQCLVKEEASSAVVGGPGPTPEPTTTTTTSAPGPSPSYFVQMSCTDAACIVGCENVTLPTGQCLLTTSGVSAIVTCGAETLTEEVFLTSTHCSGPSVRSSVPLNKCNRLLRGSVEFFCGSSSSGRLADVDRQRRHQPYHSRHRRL
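Purified cruzain (1.5 nM final) was preincubated with compounds for 15 min at room temperature in 100 mM sodium acetate pH 5.5, 5 mM DTT, 0.01% Triton X-100. Reaction started with 2 uM Z-FR-AMC; AMC fluorescence change over 60 s gave activity.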
2A StopGo: High Throughput Screening for Foot and Mouth Disease Virus Antivirals; Potency, µM (top dose mostly 57.9 µM), inactives show at the top dose signal change, negative = less light; human cells with a luciferase reporter of 2A StopGo recoding; control for the full effect not named in the record; actives 1.2% (n = 410,000); active = well fitted falling curve with a large enough effect; inconclusive = small, poorly fitted or top-dose-only effect; inactive = no such curve, though single readings can be large or run the other way; tested in HEK293T cells; also: % is scaled to controls: 0 for no effect and ±100 for the full control effect; nearly all actives have a fitted effect of over 45% in size; luciferase light after 4 h
Lassa entry inh: qHTS for Inhibitors of binding or entry into cells for Lassa Virus; AID 540256, 2011; Potency, µM (top dose mostly 37.9 µM), inactives show at the top dose activity change, negative = inhibition, most hits filed as inhibitors; actives 1.2% (n = 300,000); Lassa virus pseudotype entry inhibition, cell reporter; control for the full effect not named in the record; active means well fitted inhibition curve with a large enough effect; inconclusive means small, poorly fitted or top-dose-only effect, or effect the other way; inactive means flat fitted curve, though single readings scatter; tested in HEK293 cells; also: % is scaled to controls: 0 for no effect and ±100 for the full control effect; nearly all actives have a fitted effect of over 50% in size; luciferase read-out
RE007 growth inh: qHTS Assay for Inhibitors of the HIV-1 protein Vpr | S. pombe RE007 Vpr strain, BacTiter-Glo ATP luminescence, 24 h; control for the full effect not named in the record | actives 0.21% (n = 360,000) | AID 651644, 2012 | Potency, µM (top dose mostly 92.2 µM), inactives show top-dose activity change, negative = less growth; active = well fitted falling curve with a large enough effect; inconclusive = small, poorly fitted or top-dose-only effect; inactive = no such curve, though single readings can be large or run the other way;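 also: % is scaled to controls: 0 for no effect and ±100 for the full control effect; nearly all actives have a fitted effect of over 50% in size; the assay follows cell death caused by Vpr and the record does not say whether a fall means rescue or toxicity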
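Fission yeast RE007 carrying one integrated HIV-1 vpr copy, seeded at OD 0.01 in PMG+AL medium with 23 nL pinned compound. Grown 24 h at 30 degrees; viability read by BacTiter-Glo luminescence after 5 min.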
SARS PLpro yeast: qHTS of Yeast-based Assay for SARS-CoV PLP; S. cerevisiae expressing SARS-CoV PLpro, growth rescue; control for the full effect not named in the record; Potency, µM (titrated, usually from 32.9 µM), for inactives: at the top dose activity, positive = growth rescue; actives 0.19% (n = 330,000); AID 485353, 2010; also: 0% is about no effect; nearly all actives have a fitted effect of over 55% in size; growth read by luminescence after 48 h
Cruzain inh noDet: qHTS Assay for Promiscuous and Specific Inhibitors of Cruzain (without detergent); purified cruzain, Z-FR-AMC fluorescence, no detergent; Potency, µM, inactives show max response, negative = inhibition, hits mostly inhibitors; actives 2.3% (n = 200,000); active = well fitted curve in the direction sought with a large enough effect; inconclusive = small, poorly fitted or top-dose-only effect, or another doubt; inactive = no such curve, though single readings can be large; an effect the other way counts as inactive or inconclusive;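 also: plate controls were enzyme without inhibitor for no effect and buffer without enzyme for full effect; nearly all actives have a fitted effect of over 40% in size; top concentration of the series not given in the record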
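Detergent-free condition (0.00005% Triton X-100) in acetate buffer pH 5.5 with DTT. 1.5 nM enzyme and compound were pre-mixed 15 min, then 2 uM Z-FR-AMC substrate added; reaction progress from fluorescence change between first and third reads (60 s).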
NS1 function inh: qHTS Assay for Inhibitors of Influenza NS1 Protein Function; S. cerevisiae slowed by influenza A NS1, growth recovery by OD600; Potency, µM (titrated, usually from 46.1 µM), inactives show top-dose activity, positive = more growth; actives 0.4% (n = 270,000); also: actives are rising curves; nearly all actives have a fitted effect of over 50% in size
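OD600 was taken as the measure of yeast growth restored by compound in an NS1-expressing S. cerevisiae strain. Cells had been washed out of glucose medium and diluted 1:100 into galactose -URA medium, pH 6.0.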
MARV entry inh: qHTS for inhibitors of binding or entry into cells for Marburg Virus | Potency, µM (doses to about 37.8 µM), for the others: top-dose activity change, negative = inhibition, usual class: inhibitors | actives 1.8% (n = 300,000) | Marburg virus pseudotyped entry inhibition, cell reporter; control for the full effect not named in the record; about a third of the inactives were read at about 46 µM | AID 540276, 2011; active = well fitted inhibition curve with a large enough effect; inconclusive = small, poorly fitted or top-dose-only effect, or effect the other way; inactive = flat fitted curve, though single readings scatter; tested in HEK293 cells; about a fifth of its hits are not listed in these tables; also: % is scaled to controls: 0 for no effect and ±100 for the full control effect; luciferase read-out
The depositor's hits bear a star; ? = inconclusive; / = no result given; & = joins results of further samples; [ ] = another dose, or the depositor's remark. Unless noted, calls follow the shape of the dose curve; as a rule, active means well fitted rising curve with a large enough effect; inconclusive means small, poorly fitted or top-dose-only effect; inactive means no such curve, though single readings can be large or run the other way. Potency is read from the fitted curve at half-maximal effect. Rows were taken by chance; 4.7% or so of the library scored in one or more.

SMILES	Cruzain inh Det	2A StopGo	Lassa entry inh	RE007 growth inh	SARS PLpro yeast	Cruzain inh noDet	NS1 function inh	MARV entry inh
Cc1ccc(-n2c(SCC(=O)N3CCCCC3)nc(O)c(Cc3ccccc3)c2=O)cc1	/	-4%	/	-1%	5%	/	9%	/
CC(C)Cc1nn2c(=O)cc(CSCC(=O)Nc3ccccc3F)nc2s1	/	8%	/	-10%	-5%	/	-1%	/
CCCC(=O)Nc1cc(-c2cn3cccnc3n2)ccc1OC	1.4%	6%	-20%	-6%	1%	0%	-1%	1%
C#CCSc1nnc(-c2ccc(O)cc2)o1	/	21%	?	-8%	2%	/	/	?
CC12CN(C(=O)c3ccccc3Br)CC(C)(CN(C(=O)c3ccccc3Br)C1)C2=O	/	-1%	-30%[46.1 µM]	10%	0%	/	-3%	-5%[46.1 µM]
COc1cc(-c2ncc3ccccn23)cc(OC)c1OC	-2.8%	-17%	?	-5%	4%	-13%	-2%	-12%
COc1ccc(CC2(CO)CCN(C(=O)NCc3ccccc3)CC2)cc1	/	-20%	?	13%	-1%	/	-2%	-8%[46.1 µM]
COc1ccc(Nc2nc(Cl)nc(Nc3ccc(OC)cc3OC)n2)c(OC)c1	/	-23%	-26%	-14%	1%	/	12%	?
O=C(NCCCn1ccnc1)c1cc(S(=O)(=O)N2CCOCC2)ccc1F	/	0%	-4%[46.1 µM]	8%	3%	/	/	-7%[46.1 µM]
CCOc1cc(C(=O)N2CCC(CC3CC(c4cccc(Br)c4)=NO3)(C(=O)NCC3CCCCC3)CC2)cc(OCC)c1OCC (stereo not given)	/	-16%	/	-1%	10%	/	-12%	/
FC(F)Oc1ccc(C2N=C(c3ccccc3)NO2)cc1 (stereo not given)	/	-6%	?	-19%	2%	/	-1%	?
COC(=O)c1ccc(NS(=O)(=O)c2cc3c4c(c2)CCC(=O)N4CCC3)cc1	/	35%[activator]	12%	7%	1%	/	/	-16%
COc1ccc(-n2ncc3c(=O)n(CC(C)=O)cnc32)cc1	/	-5%	2%[46.1 µM]	-6%	7%	/	6%	1%[46.1 µM]
CCOC(=O)c1cc(-c2ccc(OC)cc2)n[nH]1	/	77%[activator]	/	-13%	-2%	/	-3%	/
COc1cccc(N2CCN(Cc3ccco3)CC2)c1	/	7%	3%	-21%	2%	/	10%	16%
CCC(C)NC(=O)C1CCC(CNS(=O)(=O)c2ccc3c(c2)N(C(C)=O)CCO3)CC1 (stereo not given)	/	-5%	0%[46.1 µM]	-2%	0%	/	3%	20%[46.1 µM]
CC(=O)c1cccc(CN2CCN(C3CCCC3)C(CCO)C2)c1 (stereo not given)	/	-19%	/	2%	-1%	/	1%	/
CC(C)(C)c1cc(=O)[nH]c(SCc2ccccc2)n1	/	-28%	?	4%	-2%	/	2%	-10%[46.1 µM]
O=C(NCCC(=O)N(Cc1ccco1)Cc1cccs1)c1ccc([N+](=O)[O-])cc1	/	0%	?	6%	0%	/	/	-3%
Cc1ccc(-c2nc(S(=O)(=O)c3ccc(F)cc3)c(N3CCN(c4ccccc4)CC3)o2)cc1	-3.2%	?	?	/	/	-10%	/	-3%[46.1 µM]
COc1ccc(NC(=O)CSc2c(C(C)C)cnc3c2c(=O)n(C)c(=O)n3C)c(OC)c1	-0.2%	-30%	22%[46.1 µM]	/	/	-5%	/	/
CSc1ncc(CN2CCN(CCC(C)C)C(CCO)C2)cn1 (stereo not given)	/	-13%	?	-8%	1%	/	-1%	13%[46.1 µM]
CCOc1ccc(N(CC(=O)Nc2cc(OC)cc(OC)c2)S(=O)(=O)c2c(C)[nH]c(=O)[nH]c2=O)cc1	-0.1%	-6%&-3%	-7%&1%[46.1 µM]	0%	23%	-4%	11%	-19%&7%[46.1 µM]
COc1ccc(OC)c(NC(=O)CSC2=Nc3ccccc3C3=NC(CC(=O)NCc4ccc5c(c4)OCO5)C(=O)N23)c1 (stereo not given)	-4.8%	-14%	-20%[46.1 µM]	/	/	16%	/	/
COC(=O)C1=C(O)/C(=C\c2ccc(CNS(=O)(=O)c3ccc(Cl)cc3)o2)N=C1C	-12%	-4%	1%	-4%	0%	-5%	?	-3%
COC(=O)c1ccc(OCc2nn[nH]n2)cc1	/	1%	/	20%	-2%	/	-7%	/
COc1ccc([C@@H]2C[C@H]3CN(Cc4ccccc4OC)C(=O)[C@]34CCCN24)cc1C	/	30%[activator]	/	6%	0%	/	6%	/
CC(Oc1ccc(Cl)cc1Cl)C(=O)Nc1cccnc1 (stereo not given)	-2.1%	-11%	0%	?	-62%	-22%	-7%	-10%
CCc1c(C)nc2nc(SCc3ccccc3)[nH]n2c1=O	/	5%	0%[46.1 µM]	23%	-2%	/	-5%	3%[46.1 µM]
CCOC(=O)N1CCc2c(sc3c2c(=O)n(CCc2ccccc2)c(=O)n3Cc2ccc(C)cc2C)C1	1.2%	-22%	-2%[46.1 µM]	/	/	-29%	/	-13%[46.1 µM]
CCCCCc1ccc(-c2cn(CCCOCc3ccccc3)nn2)cc1	/	0%	/	2%	-6%	/	-9%	/
Nc1nc(N2CCN(c3ccccc3)CC2)n[nH]1	/	-7%	7%	-3%	1%	/	-2%	?
CCCCOc1ccc(N2C(=O)CC(N(O)c3ccccc3)C2=O)cc1 (stereo not given)	2.3%	-9%	-2%	14%	-3%	20µM*	4%	-6%
O=C(O)C(Oc1ccc(Cl)cc1)c1ccc(Cl)cc1 (stereo not given)	/	-7%	-19%[46.1 µM]	-4%	/	/	/	-12%[46.1 µM]
Cc1ccc(Nc2c(-c3cccnc3)nc3ccc(Br)cn23)cc1	-1.2%	-18%&0%	1%[46.1 µM]	15%	2%	13%	/	16%&16%[46.1 µM]
OCCNCCOCCOc1ccccc1-c1ccccc1	-2.0%	-9%	?	-13%	9%	-16%	20%	?
CC(CC(=O)O)CC(=O)Nc1cccc([N+](=O)[O-])c1 (stereo not given)	/	8%	3%	-7%	1%	/	-2%	-5%[46.1 µM]
NC(=O)CC[C@H](NC(=O)c1ccc(F)cc1)C(=O)N1CCN(Cc2ccc3c(c2)OCO3)CC1	/	-19%	-12%	-15%	-1%	/	/	9%
COCCn1c(-c2cccs2)nc2c(c(=O)c3ccccc3n2C)c1=O	0.3%	/	/	/	-5%	-16%	1%	-2%
Cc1c(C(=O)Nc2cccc(C(F)(F)F)c2)oc2ccc(S(=O)(=O)N(C)C3CCCCC3)cc12	1.0%	?	?	/	/	19%	/	/
CCOc1ccccc1N1CC(c2nc3ccccc3n2CCCOc2ccccc2)CC1=O (stereo not given)	-8.9%	-24%	?	/	/	?	/	?
CCN(CC)CC(C)CNC(=O)c1cc(-c2ccc(Br)s2)nc2ccccc12 (stereo not given)	-6.2%	-23%	-12%[46.1 µM]	/	/	9%	/	?
CCN1C(=O)c2cccc3c(NC(=O)C(C)(C)C)ccc1c23	-2.2%	3%	15%	1%	-6%	1%	-6%	11%[46.1 µM]
O=C(c1ccco1)N1N=C(c2ccncc2)CC1(O)C(F)(F)F (stereo not given)	/	39%[activator]	7%[46.1 µM]	1%	-1%	/	-1%	-2%[46.1 µM]
CCn1c(CN2CCCCC2)nc2cc(NC(=O)COc3cc(C)ccc3C(C)C)ccc21	-1.4%	?	-2%[46.1 µM]	/	/	-4%	/	1%[46.1 µM]
Cc1ccc(C(=O)OCC(=O)N2CCc3ccccc32)cc1	1.8%	79%[activator]	?	11%	-3%	-6%	-10%	-9%[46.1 µM]
Cc1cc(C)n2nc(SCc3cc(=O)oc4cc(C)c(C)cc34)nc2n1	0.8%	/	/	/	30%	?	-5%	/
O=C(c1ccccc1)n1ccc2ccccc21	-3.1%	29%	4%	-25%	3%	-1%	-36%	3%
CCCC(=O)Nc1cc2c3c(c1)CC(=O)N3CCC2	/	-6%	/	61%	-2%	/	0%	/
O=C(c1nc2ccccn2c1CN1CCN(c2ccccc2O)CC1)N1CCCC1	/	-11%	?	1%	0%	/	1%	-12%[46.1 µM]
O=C(Cn1nnc(-c2cc(C(F)(F)F)cc(C(F)(F)F)c2)n1)NNC(=S)Nc1ccc(Cl)cc1	/	-8%	/	6%	1%	/	18%	/
O=C(Cn1c(=O)sc2ccccc21)NCc1ccco1	0.4%	28%	13%	-2%	2%	-4%	2%	9%[46.1 µM]
COc1ccc(N2C(N)=NC(N)=NC23CCCC3)cc1	-1.1%	-13%	10%	12%	2%	-2%	0%	?
O=C(Nc1cccc(Cl)c1)OCc1cn(-c2ccccc2)nn1	/	2.5µM*	?	2%	-6%	/	/	16%[46.1 µM]
O=C(Nc1ccc2c(c1)OCCO2)c1cccnc1Oc1ccc(Cl)cc1	/	-27%	?	2%	-7%	/	-1%	?
CN(Cc1ccccc1F)C(=O)COc1ccc(C(=O)c2ccccc2)cc1	/	-2%	-5%[46.1 µM]	-7%	-4%	/	-86%	12%[46.1 µM]
Cc1cc2nc(C)n(CCCNC(=O)Nc3ccccc3)c2cc1C	-2.9%	-1%	0%	9%	7%	1%	2%	-24%
O=C(OCCCOC(=O)c1cc[n+]([O-])cc1)c1cc[n+]([O-])cc1	/	-8%	/	0%	0%	/	-2%	/
Cc1c(N2C(=O)C(=O)/C(=C(/O)c3ccc(Br)cc3)C2c2cccnc2)c(=O)n(-c2ccccc2)n1C (stereo not given)	/	-1%	7%	-1%	3%	/	/	24%[46.1 µM]
COc1ccc(N2CC(C(=O)NCCc3ccc(Cl)cc3)CC2=O)c(OC)c1 (stereo not given)	/	-15%	-2%	18%	/	/	/	?
N/C(=N\OC(=O)Cc1ccc(-c2ccccc2)cc1)c1cccc([N+](=O)[O-])c1	-0.3%	2%	2%	1%	3%	-7%	17%	-2%

Assay outcomes from PubChem.
